Bioassay records as filed in PubChem.
VDR inhibitor: Inhibitors of the vitamin D receptor (VDR): qHTS; Vitamin D3 receptor (Homo sapiens), P11473; VDR-SRC2-3 peptide fluorescence polarization, 2 h; Potency, µM, without a hit: max response, negative = inhibition, hits mostly inhibitors; hit rate 0.93% among 400,000; AID 504847, 2011; active means well fitted inhibition curve with a large enough effect; inconclusive means small, poorly fitted or top-dose-only effect, or another doubt; inactive means no such curve, though single readings can be large or run the other way; further: series mostly up to about 120 µM
Target sequence (P11473 whole entry, looked up): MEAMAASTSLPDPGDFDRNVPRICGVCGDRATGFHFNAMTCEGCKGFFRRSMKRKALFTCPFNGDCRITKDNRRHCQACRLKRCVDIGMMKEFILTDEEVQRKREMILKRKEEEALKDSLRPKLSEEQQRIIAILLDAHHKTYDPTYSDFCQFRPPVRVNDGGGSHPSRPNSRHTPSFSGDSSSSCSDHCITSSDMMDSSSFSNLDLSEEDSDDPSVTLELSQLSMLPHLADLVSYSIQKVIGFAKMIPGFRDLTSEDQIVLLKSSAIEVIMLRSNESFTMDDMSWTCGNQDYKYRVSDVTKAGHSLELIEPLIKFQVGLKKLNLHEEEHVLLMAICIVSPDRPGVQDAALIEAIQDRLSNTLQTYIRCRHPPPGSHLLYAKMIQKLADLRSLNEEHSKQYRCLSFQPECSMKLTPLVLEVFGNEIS
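Measured by FP: displacement of SRC2-3 coactivator peptide from VDR by library compounds, following a two-hour ambient incubation.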
Starred values were filed as active, the others as inactive; ? = inconclusive; & = joins results of further samples. On the % scale 0 is the no-effect control and ±100 the full control effect; potency means the concentration at half of the fitted maximal effect.

mol | VDR inhibitor
CCCn1nc(C(=O)Nc2ccc3c(c2)OCCO3)c2ccccc2c1=O | -8%
CCOC(=O)c1ccc(NC(=O)Cn2c3ncccc3c(=O)n2-c2ccc(C)c(C)c2)cc1 | 3%
COc1cc(NC(=O)CN(C)CCOc2ccccc2)c(C)cc1[N+](=O)[O-] | -8%
COc1ccc(S(=O)(=O)NCCN2CCOCC2)cc1Br | -9%
CC1Cc2cc(S(=O)(=O)NCCc3ccccc3)ccc2N1C(=O)C1CC1 (configuration not stated) | -17%
O=C(O)/C=C/C(=O)NNC(=O)c1ccccc1Br | -12%
CC1(C)CC(=O)C(C=NCCN2CCN(C3CC(=O)N(c4ccc(F)cc4)C3=O)CC2)=C(O)C1 (configuration not stated) | 1%
COc1cccc(NC(=O)CN2C(=O)C3(OCCCO3)c3ccccc32)c1 | 8%
Cc1c(N=c2scc(-c3ccccc3)n2CCO)c(=O)n(-c2ccccc2)n1C | 14%
CC(C)(C)OC(=O)N/N=C/c1c[nH]c2ccccc12 | -8%
O=C(Nc1ccc(C(=O)O)cc1)/C(=C\c1ccco1)NC(=O)c1ccco1 | ?
Cc1ccc(NC2CCCN(C(=O)Cc3nonc3C)C2)cc1C (configuration not stated) | 17%
Cc1ccc(C(=O)CSc2cnc3ccccc3n2)cc1C | -12%
CCOC(=O)C1=NN(c2ccc([N+](=O)[O-])cc2)CC1C(=O)OC (configuration not stated) | ?
CCOc1ccc(-c2csc(NC(=O)c3cccc(N4C(=O)CCC4=O)c3)n2)cc1 | -4%
C[N+]1(CCN2C(=O)C3CC=C(Cl)CC3C2=O)CCOCC1 (configuration not stated) | -1%
CCN(Cc1ccc(OC)c(F)c1)C(=O)c1cc2ccccc2o1 | -21%
N#Cc1c(NC(=O)CCN2C(=O)c3ccccc3C2=O)oc(-c2ccccc2)c1-c1ccccc1 | 7%
O=C(CSc1ccc(-c2ccccn2)nn1)c1ccc([N+](=O)[O-])cc1 | -4%
COC(=O)CSc1nnnn1-c1cccc2ccccc12 | 2%
CCS(=O)(=O)NCc1csc(C)n1 | -4%
CCC(C)(C)C1CCC2(CC1)NC(=O)N(CC(=O)NCCOc1ccccc1)C2=O (configuration not stated) | 12%
COc1ccc(CCNC(=O)C(=O)NCC(c2ccc3c(c2)OCO3)N2CCOCC2)cc1OC (configuration not stated) | 10%
O=C(c1ccc(F)cc1)N1CCN(C2CCC(c3ccccc3)CC2)CC1 (configuration not stated) | -9%
CCCC(=O)Nc1ccccc1NC(=O)c1ccc(OC)cc1 | -1%
CCN(C(=O)COc1ncnc2ccccc12)C1CCCCC1 | -4%
Cc1cc(=O)n(CCC(=O)O)c2ccccc12 | 6%
CCCCSCCCNC(=O)CN1C(=O)COc2ccc(S(=O)(=O)N3CCC(C)CC3)cc21 | 12%
CN1CCN(S(=O)(=O)CC2(C)C3CCC2(C)C(=O)C3Br)CC1 (configuration not stated) | -8%
O=C(Nc1ccc(-c2nnc(-c3ccccc3)o2)cc1)C1CCCO1 (configuration not stated) | 4%
Cc1ccc(S(=O)(=O)N2[C@@H](c3ccc(Br)cc3)C(C(=O)O)=CC[C@H]2c2cccc(Cl)c2)cc1 | -12%
COc1cc(OC)c(-n2cc(-c3ccc(Cl)cc3)[nH]c2=O)cc1Cl | 6%
CCOC(=O)c1sc2nc(C)nc(NCCc3ccc(S(N)(=O)=O)cc3)c2c1C | -10%
O=C(CSc1nnc(SCc2ccc(Cl)cc2)s1)N/N=C/c1ccc(C(=O)O)cc1 | -7%
O=C(NC1CCCc2ccccc21)C1CCN(S(=O)(=O)c2cccc(C(F)(F)F)c2)CC1 (configuration not stated) | 3%
COc1cc(C(=O)NCCOc2ccc(C)c(C)c2)cc(OC)c1OC | -5%
CSc1cccc(NC(=O)CN(c2ccccc2)S(=O)(=O)N(C)C)c1 | 8%&-3%
c1ccc(-c2cc(-c3nn4c(-c5ccco5)nnc4s3)c3ccccc3n2)cc1 | -13%
COc1ccc(C(CNC(=O)COc2ccc(-c3ccccc3)cc2)N2CCOCC2)cc1 (configuration not stated) | -2%
Cc1ccc(NC(=O)CSCc2n[nH]c(=O)[nH]2)c(Br)c1 | -11%

Compounds shown so far with a furan ring, fused or not:
mol | VDR inhibitor
O=C(Nc1ccc(C(=O)O)cc1)/C(=C\c1ccco1)NC(=O)c1ccco1 | ?
CCN(Cc1ccc(OC)c(F)c1)C(=O)c1cc2ccccc2o1 | -21%
N#Cc1c(NC(=O)CCN2C(=O)c3ccccc3C2=O)oc(-c2ccccc2)c1-c1ccccc1 | 7%
c1ccc(-c2cc(-c3nn4c(-c5ccco5)nnc4s3)c3ccccc3n2)cc1 | -13%

The listing continues.
mol | VDR inhibitor
Cc1ccn2cc(-c3cccc(S(=O)(=O)N4CCCC4)c3)nc2c1 | -8%
CC1=CC2=NC(=O)/C(=C\c3cn(C)c4ccccc34)C(=N)N2O1 | -4%
CC(=O)N1c2ccc(S(=O)(=O)N3CCC(C(=O)Nc4cccc(Cl)c4C)CC3)cc2CC1C (configuration not stated) | -4%
CCn1c2ccccc2c2cc(NC(=O)CSc3nnnn3-c3ccccc3)ccc21 | -15%
NC(=O)c1ccsc1NC(=O)CS(=O)(=O)c1ccc(Cl)cc1 | 5%
CN(C)S(=O)(=O)c1ccc(N2CCCC2)c(C(=O)NCC2CCCCC2)c1 | -4%
COc1ccc(C2c3c(-c4ccc(F)cc4)n[nH]c3C(=O)N2c2ccccc2)cc1OC (configuration not stated) | 2%
COc1ccc(C2N(c3ccc(Cl)cc3)C(=O)C3CCCN32)cc1 (configuration not stated) | -18%
O=C1NC(=O)N(c2ccc(Cl)cc2)C(=O)/C1=C/c1ccc2c(c1)CCN2Cc1ccccc1Cl | 10%
COCCCNC(=O)c1ccc(-n2c(-c3ccccc3)cc3c2CCCCC3)cc1 | 5%
O=C(Nc1ccccc1)Nc1nnc(COc2ccccc2F)s1 | 11%
CCOCCn1c(C(C)C)nc2ccccc21 | -13%
COc1ccccc1NC(=S)NC(C)C(c1cccs1)N1CCOCC1 (configuration not stated) | -9%
CC(C)(C)OC(=O)N/N=C\C=C\c1ccc2c(c1)OCO2 | -16%
CCOc1ccc(C(=O)Nc2cccc(NC(=O)c3ccco3)c2)cc1Cl | -19%
CCc1ccc2oc(=O)cc(CN3CCN(c4ccc(F)cc4)CC3)c2c1 | 5%
Cc1ccc(S(=O)(=O)N2CCC[C@H]2C(=O)Oc2ccccc2)cc1 | 19%
Cc1c(C(=O)Oc2cccc3ccccc23)cnn1-c1ccccc1 | 7%
NC(=N\N=CCc1ccccc1)/C(N)=N/N=CCc1ccccc1 | 2%
CSc1cccc(-c2nnc(NC(=O)c3cccc(N4C(=O)CCC4=O)c3)o2)c1 | -24%
CCOc1ccc(-n2c(Cc3ccccc3)nnc2SCc2c(C)noc2C)cc1 | 9%
Cn1c(N)c(S(=O)(=O)N2CCN(Cc3ccccc3)CC2)c(=O)n(C)c1=O | 2%
Cn1c(=O)[nH]c(=O)c2c1nc(N1CCCCCC1)n2CCN1CCCCCC1 | 3%
CN(C(=O)Cn1cnc2onc(-c3ccc(F)cc3)c2c1=O)c1ccccc1Cl | 12%

Four entries from above, with each value named:
Cc1c(C(=O)Oc2cccc3ccccc23)cnn1-c1ccccc1
  VDR inhibitor = 7%

NC(=N\N=CCc1ccccc1)/C(N)=N/N=CCc1ccccc1
  VDR inhibitor = 2%

CSc1cccc(-c2nnc(NC(=O)c3cccc(N4C(=O)CCC4=O)c3)o2)c1
  VDR inhibitor = -24%

CCOc1ccc(-n2c(Cc3ccccc3)nnc2SCc2c(C)noc2C)cc1
  VDR inhibitor = 9%

Next results follow:
mol | VDR inhibitor
C=CCn1c(C(C)NC(=O)C(C)(C)C)nc2ccccc21 (configuration not stated) | 3%
COc1cc(CC(=O)N2CCN(C(=O)C3CCCO3)CC2)cc(OC)c1OC (configuration not stated) | -10%
Cc1ccc(C)c(OCCC(=O)OCC(=O)Nc2cc(S(=O)(=O)N3CCOCC3)ccc2C)c1 | -25%
Cc1cc(C)n(-c2nnc(Nc3ccc(C)c(C)c3)c3ccccc23)n1 | -2%
CCc1ccc(NC(=O)C2CCCN2C(=O)NC2CCCCC2)cc1 (configuration not stated) | -7%
S=c1[nH]nc(C2CCCCC2)n1/N=C/c1cccc(Br)c1 | 2%
O=C(Oc1ccccc1Cl)c1ccc2c(=O)n3c(nc2c1)CCC3 | 7%
CN1CCN(C(=S)NC(=O)c2ccc(S(=O)(=O)N3CCOCC3)cc2)CC1 | -17%

Quoted from the entries so far for reference:
mol | VDR inhibitor
CCc1ccc2oc(=O)cc(CN3CCN(c4ccc(F)cc4)CC3)c2c1 | 5%
Cc1ccc(S(=O)(=O)N2CCC[C@H]2C(=O)Oc2ccccc2)cc1 | 19%

(further entries)
mol | VDR inhibitor
Fc1cccc(CNC2CCN(CCc3ccccc3)CC2)c1 | -7%
O=C(COc1ccc2oc(-c3ccccc3)cc(=O)c2c1)NCc1ccco1 | 10%
CCC(C)NC(=O)CC1Oc2ccc(C)cc2NC1=O (configuration not stated) | -4%
CCC(CC)c1nnc(NC(=O)C23CC4CC(CC(NC(C)=O)(C4)C2)C3)s1 | -5%
COc1ccc(N2Cc3ccccc3/C2=N\C(=O)Nc2ccccc2)cc1 | -1%
O=C1OC(C(=O)NCc2ccccc2)Cc2ccccc21 (configuration not stated) | -15%
O=C(CCc1nc2ccccc2c(=O)[nH]1)Nc1ccccc1N1CCCC1 | -2%
Cc1ccccc1-n1c(SCc2csc(Nc3ccccc3)n2)nnc1-c1cccnc1 | -11%

Continued.
| mol | VDR inhibitor |
| --- | --- |
| CCc1ccc(NC(=O)c2cnc(N3CCN(c4ccccn4)CC3)c3ccccc23)cc1 | 10% |
| O=C(/C=C/c1ccccc1[N+](=O)[O-])Nc1cccc(S(=O)(=O)NC2=NCCCCC2)c1 | -4% |
| CCOc1ccccc1CNS(=O)(=O)c1ccc2[nH]c(=O)sc2c1 | 13% |
| Cc1cccc(/C=C(\C(=O)O)c2ccc(S(=O)(=O)N3CCCC3)s2)c1 | -16% |
| CSc1ccccc1NC(=O)CSc1n[nH]c(C)c1[N+](=O)[O-] | 4% |
| Cc1ccc(S(=O)(=O)N2CCCCC2)cc1C(=O)Nc1ccc2cn[nH]c2c1 | 9% |
| COc1ccccc1NC(=O)CSc1nnc(C)n1CCc1ccccc1 | 2% |
| Cc1ccc(NC(=S)N(CCCN2CCC(C)CC2)Cc2ccco2)cc1 | 3% |
| COC(=O)CSc1nnc(CNC(=O)Cc2ccccc2)n1C | -3% |
| COC(=O)c1[nH]c2cccc(Cl)c2c1NC(=O)CN1CCCCC1C (configuration not stated) | 8% |
| CCOc1ccc(Cl)cc1Nc1nc(NCCO)nc(N2CCCC2)n1 | -14% |
| O=C(CCNS(=O)(=O)c1ccc(Cl)cc1)OCC(=O)c1ccc[nH]1 | -10% |
| O=C(c1ccccn1)N1CC=C(c2ccccc2)CC1 | -4% |
| CCN(CC)CCCNC(=O)CCc1ccccc1 | 8% |
| COc1ccc(S(=O)(=O)NC(C)C(=O)Nc2ccc3c(c2)OCCO3)cc1OC (configuration not stated) | 19% |
| CCOc1ccc(-c2cc3nc(C4CCN(C(=O)OC(C)(C)C)CC4)c(C(=O)Nc4ccc(C)cc4C)cn3n2)cc1 | -28% |
| Fc1ccc(-c2cc3nc4c(c(N5CCOCC5)n3n2)CCCC4)cc1 | 0% |
| CCCCCC(=O)OC(CN1CCCCCC1)CN1CCCC1=O (configuration not stated) | 3% |
| COc1ccccc1CCc1nnc(CCC(=O)NCCOc2cccnc2)o1 | -9% |
| O=C(Cn1nnc(-c2ccccc2)n1)NNC(=O)c1ccco1 | -8% |
| O=C(c1ccc(Br)cc1)c1coc2ccc(O)cc12 | -21% |
| O=C(Nc1ccc(F)cc1)c1cc(-c2ccncc2)nc2c(Cl)cccc12 | 12% |
| CCOC(=O)c1nnn(-c2nonc2N)c1COc1c(C=O)cccc1OC | 12% |
| CCOC(=O)N1CCC(NC(=O)Cn2ncc3ccccc32)CC1 | 0% |
| CNC(=O)CSc1nnc(-c2ccccn2)n1Cc1ccco1 | 20% |
| CSc1nc2ccccc2cc1/C=C(\C#N)c1ccc(Cl)cc1Cl | 18% |
| Cc1c(NC(=O)OCCNC(=O)COc2c(Cl)cccc2Cl)sc(=S)n1C | -9% |
| CCC(C)(C)NC(=O)CN(Cc1ccc2c(c1)OCO2)C(=O)CCC(=O)Nc1cc(C)ccn1 | 2% |
| CC1CCc2c(sc(NC(=O)c3noc4c3CCCC4)c2C(N)=O)C1 (configuration not stated) | -2% |
| CCCCCCn1c(/C=C/c2ccccc2)nc2ccccc21 | 1% |
| Cc1ccc(NC(=O)CCC(=O)N2CCC(c3ccccc3)=N2)cc1S(=O)(=O)N1CCCCC1 | -8% |
| Cc1ccc(CNC(=O)CCS(=O)(=O)c2cc3c(cc2Cl)NC(=O)CO3)cc1 | ? |
| CN(C)CCNC(=O)c1ccccc1-c1cc2ccccc2c(=O)o1 | 10% |
| Cc1cccc(CSCCNC(=O)C2CCN(S(=O)(=O)Cc3ccccc3)CC2)c1 | 13% |
| COc1ccccc1NC(=O)/C=C/C(N)=O | 1% |
| O=C(c1ccc(Br)cc1)N1CCC2(CC1)NCCc1[nH]cnc12 | 3% |
| COc1cc(OC)cc(-n2nnnc2SCC(=O)N2CCCc3ccccc32)c1 | -11% |
| COc1ccc(-c2cc(C(=O)Oc3cccc(C)c3)c3ccccc3n2)cc1 | -13% |
| CC(C)(C)c1ccc(C2(C)NC(=O)N(CC(=O)NC3CCS(=O)(=O)C3)C2=O)cc1 (configuration not stated) | ? |
| NC(=O)C(C(=O)/C=C/c1ccc(Cl)cc1)=C1SCCS1 | -2% |
| COc1ccc2[nH]c3c(c2c1)CCN1C(=O)C(CC(=O)NCC24CC5CC(CC(C5)C2)C4)C[C@H](C(=O)N2CCCCC2)[C@@]31C (some centres not stated) | -7% |
| OC(CN(c1ccccc1)c1ccccc1)Cn1cnc2ccccc21 (configuration not stated) | -2% |
| Cc1cc(=O)n2[nH]cnc2n1 | -24% |

These rows are one share of the data; count on the stated rates, not on these rows.
